# GLA inh pH 4.5: inhibitors of human alpha-galactosidase A at pH 4.5 | P06280 | purified enzyme, 4-MU-alpha-Gal fluorescence, pH 4.5 | activity change, negative = inhibition, % at 105 µM | 230,000 tested, under 10 active | AID 1467; inconclusive = small, poorly fitted or top-dose-only inhibition, or a rising curve; inactive = flat fitted curve, though single readings scatter; no compound was filed as active;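 further: 0% = full activity with enzyme and -100% = basal without enzyme; dose as in the result columns while the protocol names 77 µM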
# Rango complex inh: prevents formation of the Rango-importin beta complex; Rango CFP/YFP FRET sensor + importin beta, 45 min; Potency, µM (series often up to 92.2 µM), for the others: top-dose inhibition of complex formation; 0.031% of 340,000 active; AID 540263; active = rising FRET ratio curve, often small or poorly fitted; inconclusive = mostly compound fluorescence or quenching in the first reads; inactive = flat curves in all reads;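 further: potency means the concentration at half of the fitted maximal effect; 0% = DMSO wells and 100% = buffer wells lacking importin beta; nearly all actives have a fitted effect of over 15% in size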
# Target sequence (Q14974 whole entry, looked up): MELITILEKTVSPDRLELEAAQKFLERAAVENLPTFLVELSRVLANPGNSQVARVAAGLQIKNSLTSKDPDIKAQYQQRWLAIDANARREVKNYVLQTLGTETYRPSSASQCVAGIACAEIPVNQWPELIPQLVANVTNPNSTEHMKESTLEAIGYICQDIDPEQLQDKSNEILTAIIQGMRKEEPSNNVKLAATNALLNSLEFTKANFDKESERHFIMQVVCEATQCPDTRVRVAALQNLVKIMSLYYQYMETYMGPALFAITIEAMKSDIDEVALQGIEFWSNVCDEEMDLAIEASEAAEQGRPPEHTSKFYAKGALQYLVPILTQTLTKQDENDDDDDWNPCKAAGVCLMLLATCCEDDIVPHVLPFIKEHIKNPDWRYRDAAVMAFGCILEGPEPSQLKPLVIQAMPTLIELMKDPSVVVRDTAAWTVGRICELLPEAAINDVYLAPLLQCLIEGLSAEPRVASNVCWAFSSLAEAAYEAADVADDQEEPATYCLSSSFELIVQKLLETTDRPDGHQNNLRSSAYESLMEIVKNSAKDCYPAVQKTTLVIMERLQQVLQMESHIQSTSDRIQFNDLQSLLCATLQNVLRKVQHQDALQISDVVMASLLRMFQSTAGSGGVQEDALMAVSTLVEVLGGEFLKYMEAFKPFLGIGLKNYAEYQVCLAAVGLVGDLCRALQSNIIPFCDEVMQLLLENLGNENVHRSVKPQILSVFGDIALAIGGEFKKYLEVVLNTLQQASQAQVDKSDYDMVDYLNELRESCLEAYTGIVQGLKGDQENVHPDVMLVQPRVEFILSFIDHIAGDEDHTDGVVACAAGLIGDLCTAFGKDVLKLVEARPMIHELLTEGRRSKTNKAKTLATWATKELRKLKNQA
#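 FRET biosensor (snurportin 1 IBB flanked by EYFP and cerulean), 50 nM, with compound 5 min, then 0.125 microM importin beta in PBS, 1 mM DTT, 0.02% Tween-20, 0.1% BSA. CFP/YFP ratio read after 45 min at room temperature; pre-read flags interference.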
# Rango release inh: inhibitors of RanGTP-induced Rango-importin beta complex dissociation; O95149+P62826; Biochemical FRET Rango-importin beta, RanGTP-induced dissociation; Potency, µM (titrated, usually from 46.1 µM), without a hit: top-dose activity change, negative = inhibition; 0.071% of 340,000 active; AID 540253; active means falling FRET ratio curve, often poorly fitted, with flat reads before Ran was added; inconclusive means other falling curves, or compound fluorescence or quenching; inactive means flat or rising ratio curve;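 further: potency means the concentration at half of the fitted maximal effect; % of control where 0% means no effect; nearly all actives have a fitted effect of over 45% in size; -100% = wells without RanGTP and RCC1; the record marks most hits as doubtful in a second field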
#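 FRET read at 45 min, room temperature: inhibitors block the CFP/YFP signal rise when RanGTP (0.6 uM Ran, 2 mM GTP, 0.2 uM RCC1) frees Rango (0.1 uM) from importin beta (0.25 uM). Pre-read after 5 min compound exposure flags interference.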
# miR-21 FLuc: raises the signal of a miR-21 reporter | AID 2288 | 340,000 tested, under 10 active | Potency, µM (top dose mostly 38.3 µM), for the others: at the highest dose reporter change, positive = more light | HeLa miR-21 FLuc reporter, luciferase, 48 h; active = well fitted rising curve with a large enough effect; inconclusive = small, poorly fitted or top-dose-only effect; inactive = no such curve, though single readings can be large or run the other way;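 further: % of control where 0% means no effect; miR-21 action dims this reporter so a rising signal means less miR-21 action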
#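 HeLa cells stably expressing CMV-driven firefly luciferase with a downstream miR-21 binding sequence, endogenously expressing miR-21, were treated with titrations (up to about 40uM final) for 48 hours at 37 degree Celsius. Luciferase luminescence was read after lysis.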
# Numbers without * were called inactive; ? = inconclusive; . = no result given; & = joins results of further samples; [ ] = remark or other dose. An excerpt, so the mix of outcomes need not match the whole.
smiles,GLA inh pH 4.5,miR-21 FLuc,Rango release inh,Rango complex inh
CN(C)c1ccnc(-n2cccc2/C=N/OCc2cccc(F)c2)c1C#N,-6,-11%,-13%,-1.2%
CSc1ccc(/C=N\NC(=O)CNc2ccc(C)cc2)cc1,-3,-10%,2%,1.1%
CC(C)NC(=O)N(C)C[C@H]1Oc2ccc(NS(=O)(=O)c3cn(C)cn3)cc2C(=O)N([C@H](C)CO)C[C@@H]1C,.,.,-20%,-4.4%
CC(=O)N1c2ccc(S(=O)(=O)NCCC(=O)Nc3ccccc3C)cc2CC1C (centres undefined),.,-2%,5%,?
CC(C)[C@H](NC(N)=O)C(=O)Nc1ccc2c(c1)CCC2,0,-7%,-10%,1.6%
COc1ccc(C2NC(=O)NC(O)(C(F)(F)F)C2C(=O)c2ccccc2)cc1OC (centres undefined),-7,-8%,8%,-4.9%
CCOC(=O)c1sc(S(C)(=O)=O)c2c1CCc1conc1-2,-4,-5%,-1%,2.4%
CS(=O)(=O)N1N=C(c2ccc(Cl)cc2)CC1c1cccs1 (centres undefined),-8,-46%,0%,-0.3%
O=C(CNC(=O)c1ccc(Cl)cc1Cl)NCc1ccccn1,.,.,1%,-5.9%
COc1ccccc1-c1sc2cc3c(cc2c1-c1ccc2c(c1)OCO2)OCO3,.,.,18%,-0.7%
Cc1ccnn1CC(=O)N/N=C/c1cccs1,-8,-10%,-11%,-4.3%
CC(=O)NC(CCS(C)(=O)=O)C(=O)Nc1nccs1 (centres undefined),0,-3%,-1%,?
CCc1c(C2(O)CCCCC2)[nH]c2c(C(=O)OC)cc(Cl)cc12,.,20%,-4%,-0.8%
CCCCn1nnc(NC(=O)c2cc3ccccc3o2)n1,-2,-42%,4%,-0.2%
Cc1csc(NC(=O)C2CC(=O)N(c3ccc4c(c3)OCCO4)C2)n1 (centres undefined),.,.,?,1.4%
COc1ccccc1C(=O)NC1CCN(C(=O)Nc2ccc(C)cc2)CC1,.,-7%,16%,-2.2%
FC(F)(F)c1cnc(N/N=C/c2ccncc2)c(Cl)c1,3,-14%,25%,2.0%
CCOC(=O)/C=C1\NC(=O)CS1,-5,-3%,1%,-1.8%
O=C1CC(c2ccccc2)CC2=C1C=Nc1ccccc1N2 (centres undefined),-14,?,-6%,0.3%
COc1ccc(/C=C2\SC(=S)N(CC(=O)NC3CCS(=O)(=O)C3)C2=O)cc1 (centres undefined),.,-5%,17%,-3.7%
N#CCCN(C(=O)COC(=O)c1cc(S(=O)(=O)N2CCOCC2)ccc1Cl)c1ccc(F)cc1,.,.,1%,-1.3%
O=C1CNC(=O)/C1=C/c1ccc(Br)cc1,1,0%,-8%,-0.3%
CC1CCCCC1NC(=O)c1cc2c(=O)n3ccccc3nc2n1C (centres undefined),.,-14%,-25%,5.0%
NS(=O)(=O)c1ccc(CCNC(=O)c2ccc(-c3ccccc3)cc2)cc1,.,0%,-12%,1.7%
C=CCn1c(Cc2ccc(OC)cc2)nnc1SCC(N)=O,-4,1%,6%,0.0%
CSC1=N/C(=C/c2ccc(-n3cncn3)cc2)C(=O)N1,-8,-9%,?,?
CCCN1CCN(CCCNC(=O)c2cc3c(s2)-c2ccccc2OC3)CC1,.,-15%&-35%,-13%,4.5%
COc1ccc(C(=O)N/N=c2\oc3ccccc3cc2C(N)=O)cc1,3,-5%,0%,-1.5%
CN(C)/C(=N\S(=O)(=O)c1ccc(Br)cc1)c1ccccc1,.,-5%,5%,6.3%
COc1ccc(/C=C/c2cc(-c3ccc(C)cc3)o[n+]2C)cc1,4,?,-1%,?
O=C(COC(=O)c1cccc(S(=O)(=O)N2CCCCCC2)c1)NCc1ccc(Cl)cc1,.,.,27%,5.5%
Nc1c(Cl)c(Cl)nc(C(=O)N/N=C/c2cccnc2)c1Cl,-1,-4%,-1%,-0.3%
Cn1c(=O)oc2cc(S(=O)(=O)N3CCCC(C(=O)NCc4cccs4)C3)ccc21 (centres undefined),-2,-1%,-14%,-1.6%
CCS(=O)(=O)N1CCC(C(=O)NC2CCCCCCC2)CC1,-5,-11%,-2%,-2.8%
CCCOC(=O)/C(=C\C=C\c1ccco1)NC(=O)c1ccccc1,-2,-4%,-16%,1.3%
CC1(C)Cc2ccccc2-c2nc3n(c(=O)c21)CCS3,3,1%,6%,1.2%
CCc1noc(C)c1C(=O)NNC(=O)COc1ccc(C)cc1,.,.,-7%,0.8%
CN(C)C(=O)NC(O)C(Cl)Cl (centres undefined),1,-4%,.,.
COc1ccc(CNc2ccc([N+](=O)[O-])cc2C)cc1,-14,11%,11%,-0.2%
O=C1COc2ccc(N3C(=O)C=CC3=O)cc2N1,2,?,.,.
CC1CN(C)C(C)c2c1oc1ccc([N+](=O)[O-])cc21 (centres undefined),-20,-2%,-10%,-0.2%
CC(C)S(=O)(=O)c1cnc(N2CCOCC2)nc1N,3,-6%,8%,5.6%
Cc1oc2ccc(OCc3c(F)cccc3Cl)cc2c1C(=O)O,-1,4%,9%,-0.6%
COc1ccccc1OCC(O)CN1C(=O)NC(C)(C)C1=O (centres undefined),4,-4%,3%,-2.3%
Cc1ccc(Nc2nc(N)nc(CSc3nnc(-c4ccncc4)o3)n2)cc1,-11,-12%,1%,-3.7%
COc1cc(C(=O)N/N=C(\c2ccccc2)c2ccccn2)cc(OC)c1OC,1,27%,0%,1.2%
Cn1c(COc2ccc(Cl)cc2)nnc1SCC(=O)Nc1ccc2c(c1)CCC2,1,-3%,1%,3.1%
CSc1ncccc1C(=O)NCCc1ccccc1,-7[21.1 µM],2%,15%,-1.9%
COc1ccc(CNC(=O)c2cc(=O)c3cc(C)ccc3o2)cc1,.,0%&-2%,37%,1.0%
C=CCNC(=O)CCCOc1ccc(C)cc1,-2,-12%,-5%,?
CN(C)CCCN(C(=O)CCSc1ccccc1)c1nc2cc3c(cc2s1)OCO3,-17,15%,13%,4.5%
CN(C)c1ccc(Nc2nc(N)c3ccccc3n2)cc1,.,30%,1%,-3.2%
Cc1ccc(CNC(=O)CNC(=O)c2ccc(Br)o2)cc1,.,1%,9%,-0.9%
O=C(O)CSc1c[nH]c2ccccc12,7,-1%,5%,?
COCCN(CCOC)c1nc(-c2ccccc2)nc2ccccc12,.,24%,1%,-2.0%
Cc1c(Cl)cccc1-n1c(SCC(=O)N(C)Cc2ccccc2)nnc1-c1ccncc1,4,-3%,-9%,3.3%

# 5 records drawn at random from those above:
smiles,GLA inh pH 4.5,miR-21 FLuc,Rango release inh,Rango complex inh
Cc1ccc(CNC(=O)CNC(=O)c2ccc(Br)o2)cc1,.,1%,9%,-0.9%
COCCN(CCOC)c1nc(-c2ccccc2)nc2ccccc12,.,24%,1%,-2.0%
COc1ccc(CNC(=O)c2cc(=O)c3cc(C)ccc3o2)cc1,.,0%&-2%,37%,1.0%
CN(C)CCCN(C(=O)CCSc1ccccc1)c1nc2cc3c(cc2s1)OCO3,-17,15%,13%,4.5%
C=CCNC(=O)CCCOc1ccc(C)cc1,-2,-12%,-5%,?

# (next part)
smiles,GLA inh pH 4.5,miR-21 FLuc,Rango release inh,Rango complex inh
COc1ccccc1/C=C/C(=O)OCC(=O)c1c(N)n(C)c(=O)n(C)c1=O,3,-2%,-2%,-0.6%
C=CCn1c(N)c(C(=O)NC2CCCCC2)sc1=S,1,-16%,-14%,-1.5%
CC(C)NC(=O)CCCC(=O)NC(C)C,4,0%,-8%,-4.8%
O=S(=O)(NCC1CCCO1)c1ccc(Cl)c(C(F)(F)F)c1 (centres undefined),4,-6%,9%,-4.1%
Cc1[nH]c(=S)c(C#N)c(C)c1C(=O)Nc1ccccc1,-8,-3%,3%,0.9%
O=C(NCC1CCCCC1)c1ccco1,-5,-5%,-9%,-0.4%
Cn1c(C(=O)N2CCN(c3ccccc3)CC2)cc2cc(Cl)ccc21,.,0%,-11%,-0.9%
Cc1ccc(C(=O)OCC(=O)NC2CCS(=O)(=O)C2)c(C)c1 (centres undefined),.,.,7%,2.8%
COc1ccc(-n2c(=S)[nH]c3cc(C(=O)NC4CCCCC4)ccc3c2=O)c(OC)c1,3,-10%,0%,-0.2%
COc1ccc(-c2cc(-c3ccccc3)nc(N)n2)c(O)c1,.,.,?,7.9%
O=S(=O)(c1cnc[nH]1)N1CCCCCC1,-10,-4%,-3%,0.4%
C=CCn1c(SCc2ccc(C#N)cc2)nnc1-c1ccc(C)cc1,-4,0%,4%,-3.8%
CCOC(=O)C1CCCN(C(=O)c2cnn3c(C(F)(F)F)cc(-c4ccccc4)nc23)C1 (centres undefined),-7,-3%,-2%,?
O=C(CCSc1ccc(Cl)cc1)c1ccco1,.,10%,-12%,-0.6%
COC(=O)c1ccc(-c2nc3ccc(C)cc3o2)cc1,0,-49%,11%,0.4%
COc1ccccc1C(=O)NCCC(=O)N(C)CC(=O)Nc1ccc(Cl)cc1,.,.,-11%,-0.8%
Cc1nnsc1-c1onc(C)c1C(=O)Nc1cc(Cl)cc(Cl)c1,1,?,-1%,-0.1%
C=CCNC(=S)NNC(=O)CCC(O)CCCCC (centres undefined),7,2%,-15%,3.7%
Cc1cc(C)cc(NC(=O)Nc2cnccn2)c1,.,-6%,-29%,1.9%
CCS(=O)(=O)NC(C)C(c1cccs1)N1CCN(C)CC1 (centres undefined),-2,-2%,-16%,1.9%
Cc1[nH]n(C(N)=S)c(=O)c1C(c1ccccc1)C(C#N)C#N (centres undefined),5,-8%,-8%,-0.7%
Cc1sc2nc(C3CC3)nc(SCC(=O)NCc3ccco3)c2c1C,0,-14%,14%,-0.5%
COc1ccc(NC(=O)c2cc([N+](=O)[O-])ccc2NC(=O)CNC2CCCCC2C)c(OC)c1 (centres undefined),.,-1%,12%,-2.3%
S=c1[nH]nc(-c2ccccn2)n1/N=C/c1cccc2ccccc12,-2,-2%,11%,4.6%
COC(=O)c1sc2ncccc2c1OCc1ccc(Cl)cc1,0,-9%,11%,-3.2%
CCc1ccc(N2CC(C(=O)N/N=C/c3cccc([N+](=O)[O-])c3)CC2=O)cc1 (centres undefined),-2,-10%,10%,0.2%
CCC(=O)N1CCc2cc(S(=O)(=O)NCCN3CCC(C)CC3)ccc21,2,-2%,6%,-1.7%
CCCn1c(SCC(=O)NCc2cccs2)nc2c1c(=O)n(C)c(=O)n2C,10,-5%,0%,0.8%
CC1=CC(=NOC(=O)c2cccc([N+](=O)[O-])c2)C=C(C)C1=O,-29,-20%,11%,-0.3%
O=C(COC(=O)Cc1c(F)cccc1Cl)Nc1ccc2[nH]c(=O)[nH]c2c1,.,.,-14%,?
COCC(=O)Nc1ccc(-c2cn3cccnc3n2)cc1,?,-24%,16%,-0.9%
COC(=O)[C@H](C)NC(=O)Nc1cccc(Br)c1,3,-2%,-16%,3.5%
Nc1ccc2nc(C3CCCCC3)[nH]c2c1,1,-19%,-2%,-3.1%
Cc1c2c(n3c(nc4ccccc43)c1C#N)N(CCN(C)C)CC2,?,-4%,?,?

# In the list so far, these contain a COOH group:
smiles,GLA inh pH 4.5,miR-21 FLuc,Rango release inh,Rango complex inh
Cc1oc2ccc(OCc3c(F)cccc3Cl)cc2c1C(=O)O,-1,4%,9%,-0.6%
O=C(O)CSc1c[nH]c2ccccc12,7,-1%,5%,?

# Bioassay records: PubChem BioAssay, National Center for Advancing Translational Sciences (NCATS)
